Assay outcomes from PubChem.
gsp ag – agonists of gsp mutant (McCune-Albright syndrome). actives 0.13% (n = 340,000). Potency, µM (top dose mostly 76.9 µM), without a hit: at the highest dose activation (cAMP increase), usual class: activators. gsp mutant cells, cAMP HTRF, 30 min; control for the full effect not named in the record; active = well fitted activation curve with a large enough effect; inconclusive = small, poorly fitted or top-dose-only effect, or another doubt; inactive = no such curve, though single readings can be large or run the other way; cell line not stated here;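 note: phosphodiesterase inhibitor Ro 20-1724 added with compounds to block cAMP breakdown; potency is the fitted concentration of half-maximal effect; nearly all actives have a fitted effect of over 60% in size; about a fifth of the inactives were tested at one dose only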
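Cells stably selected in G418 were plated at 2000/well, grown 16-24 hr, then given compounds in DMSO with the PDE inhibitor […] (300 uM solution added) for 30 min at 37C; cAMP was read by HTRF.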
ClpP mod – qHTS Assay for Activators of ClpP; actives 1.9% (n = 340,000); purified B. subtilis ClpP, FRET peptide cleavage, 20 min; Potency, µM (doses to about 57.5 µM), inactives show top-dose activity change, negative = active; ATP-dependent Clp protease proteolytic subunit (Bacillus subtilis (strain 168)), P80244; active = well fitted falling curve with a large enough effect; inconclusive = small, poorly fitted or top-dose-only effect; inactive = no such curve, though single readings can be large or run the other way; note: potency is the fitted concentration of half-maximal effect; the source files actives as falling curves though it sought activators and does not explain the sign; nearly all actives have a fitted effect of over 65% in size; many hits overshoot -100%
Target sequence (P80244 whole entry, looked up): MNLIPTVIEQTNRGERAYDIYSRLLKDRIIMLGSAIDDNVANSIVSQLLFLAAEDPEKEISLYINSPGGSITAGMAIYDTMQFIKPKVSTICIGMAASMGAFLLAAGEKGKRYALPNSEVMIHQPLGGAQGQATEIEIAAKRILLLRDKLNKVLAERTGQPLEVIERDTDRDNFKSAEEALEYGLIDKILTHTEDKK
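ClpP 10 microg/mL final, pH 8 Tris/KCl buffer with BSA, glycerol, Tween-20; compound pinned in; FRET-FV substrate; RT 20 min; Ex320/Em430; ΔFRET vs ADEP 5.8 microM, DMSO, no enzyme.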
TRPV1 PAM – human TRPV1 potentiation. Q8NER1. TRPV1-expressing cells, Fluo-8 calcium influx, capsaicin EC20 potentiation; host cell line not named in the record; control for the full effect not named in the record. potentiation, % at 8.33 µM. actives 0.02% (n = 320,000); active means potentiation above 80%; inconclusive means 30% to 80%; inactive means below 30%; note: 0% is about no effect
Target sequence (Q8NER1 whole entry, looked up): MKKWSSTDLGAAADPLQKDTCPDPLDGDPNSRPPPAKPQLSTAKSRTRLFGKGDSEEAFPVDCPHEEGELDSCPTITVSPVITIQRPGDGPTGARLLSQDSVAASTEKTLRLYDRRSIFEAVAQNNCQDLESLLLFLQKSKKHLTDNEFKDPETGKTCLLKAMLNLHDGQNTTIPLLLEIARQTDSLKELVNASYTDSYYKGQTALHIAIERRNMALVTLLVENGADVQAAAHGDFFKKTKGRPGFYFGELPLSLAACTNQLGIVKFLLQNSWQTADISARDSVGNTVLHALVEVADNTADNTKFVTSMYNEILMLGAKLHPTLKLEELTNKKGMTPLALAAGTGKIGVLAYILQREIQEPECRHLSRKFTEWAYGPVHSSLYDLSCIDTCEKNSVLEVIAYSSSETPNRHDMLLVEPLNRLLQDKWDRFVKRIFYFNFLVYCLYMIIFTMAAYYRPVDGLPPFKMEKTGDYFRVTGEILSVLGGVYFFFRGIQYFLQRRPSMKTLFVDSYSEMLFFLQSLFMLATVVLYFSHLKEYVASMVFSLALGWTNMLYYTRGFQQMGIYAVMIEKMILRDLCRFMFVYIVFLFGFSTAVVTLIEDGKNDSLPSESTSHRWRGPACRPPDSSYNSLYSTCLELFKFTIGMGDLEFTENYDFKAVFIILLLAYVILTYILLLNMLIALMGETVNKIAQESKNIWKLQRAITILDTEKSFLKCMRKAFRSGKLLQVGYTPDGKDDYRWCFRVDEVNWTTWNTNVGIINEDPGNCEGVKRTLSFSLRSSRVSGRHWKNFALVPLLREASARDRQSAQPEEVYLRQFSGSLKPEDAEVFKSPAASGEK
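Fluo-8 calcium influx in TRPV1-expressing cells, kinetic read (ex 480/em 520 nm). Compound added and read 3 min for agonist activity, followed by capsaicin at EC20 final and 2 min further read for enhancement.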
gsp antagonist – gsp mutant antagonism; actives 0.4% (n = 340,000); Potency, µM (doses to about 76.9 µM), for the others: at the top dose activity change, negative = inhibition, usual class: inhibitors; gsp-mutant cells, cAMP HTRF, 30 min; control for the full effect not named in the record; AID 624288; active = falling curve of any shape with a large fitted effect; inconclusive = falling curve, mostly with a smaller effect; inactive = flat or rising curve; cell line not stated here;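 note: intracellular cAMP measured with PDE inhibitor Ro 20-1724 present during compound exposure; potency is the fitted concentration of half-maximal effect; % is set by controls: 0 for no effect and ±100 for the full control effect; nearly all actives have a fitted effect of over 65% in size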
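HTRF cAMP measurement after 30 min RT detection following 30 min, 37C compound treatment alongside […] (added as 300 uM solution) in G418-selected cells seeded at 2000/well and grown 16–24 h.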
Menin-MLL FL inh – menin-MLL binding inhibition, fluorescein peptide | Fluorescence polarization, fluorescein-MLL peptide displacement from menin | FP activity change, % at 61.4 µM | 290,000 tested, under 10 active | AID 1766; inconclusive = falling polarisation curve, or a change in total fluorescence; inactive = total fluorescence flat and polarisation flat or rising; no compound was filed as active; the % refers to the polarisation; negative = inhibition;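 note: % of control where 0% means no effect; inhibitors lower the polarisation; unlabelled MLL peptide was the positive control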
Sfp PPTase inh – Sfp phosphopantetheinyl transferase inhibition. Potency, µM, inactives show max response, negative = inhibition, usual class: inhibitors. Q9F4F7. actives 3.5% (n = 310,000). Biochemical Sfp PPTase activity, qHTS; active = well fitted inhibition curve with a large enough effect; inconclusive = small, poorly fitted or top-dose-only effect, or another doubt; inactive = no such curve, though single readings can be large or run the other way;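 note: the enzyme is Sfp with the accession as filed and its product quenches rhodamine fluorescence; potency is the fitted concentration of half-maximal effect; 0% = enzyme reaction without inhibitor and -100% = no enzyme wells; top concentration of the series not given in the record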
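Fluorescence-quenching assay with 15 nM Sfp, 5 uM rhodamine-CoA and 12.5 uM BHQ-2-labelled ybbR peptide in pH 7.6 Hepes/MgCl2 buffer. Enzyme was pre-incubated with compound for 15 min at room temperature. Rate was taken from the 30-min fluorescence change (525/598 nm).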
TRPML1 inh – human mucolipin-1 channel inhibition | Q9GZU1 | TRPML1-inducible cells, Ca2+ dye fluorescence, FDSS; stronger effect = lower value; inhibition of EC80 agonist-evoked calcium signal | actives 0.02% (n = 390,000) | activity change, negative = inhibition, % (no concentration beside the values) | AID 624415; in the data active means activity change below about -50%; inconclusive means about -30% to -50%; inactive means above about -30%;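 note: stimulus is agonist 54-4 at its EC80 concentration; % is set by controls: 0 for no effect and ±100 for the full control effect; compound concentration not given in the record; the text of the record puts the active cut at -80%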
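TRPML1-DL cells, Tet-induced overnight (~16 h, 37 °C) at 1,500 cells/well, were loaded with Ca8 no-wash dye plus quencher for 45-90 min at room temperature. Compounds were pinned during FDSS kinetic reading; agonist 54-4 at EC80 (4 uM final) then added.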
* hit, by the source's call; ? = inconclusive; . = no result given; & = joins results of further samples; [ ] = another dose, or the depositor's remark.

SMILES	gsp ag	ClpP mod	TRPV1 PAM	gsp antagonist	Menin-MLL FL inh	Sfp PPTase inh	TRPML1 inh
CCOC(=O)c1c(NC(=O)c2ccoc2C)sc(C)c1C	-3%	8.9µM*	0	13%	0.3	?	0
CCOc1cccc(OCCOCCN2CCCC2)c1	-24%	0.5%	4	0%	-1.1	-6%	-15
Cn1c(=O)c2[nH]c(CCCCCCCCc3nc4ccccc4[nH]3)nc2n(C)c1=O	-1%[15.4 µM]	1.8%	.	?	.	.	-10
N#Cc1nc(-c2ccc(OCc3ccccc3)cc2)oc1NCCCn1ccnc1	13%	?	8	-8%	3.2	?	-7
CC1CCCN(C(=O)COC(=O)Cc2c[nH]c3ccccc23)C1 (centres undefined)	-48%[inhibitor]	-3.5%	2	9%	.	.	18
COCCN(CCOC)S(=O)(=O)c1ccc(C(=O)Nc2nc(-c3ccncc3)cs2)cc1	-41%[inhibitor]	-21%	-2	10%	5.2	19%	-8
O=S(=O)(NC1=NCCC1)c1cccc(NC(=S)Nc2ccc(OC(F)F)cc2)c1	4%[15.4 µM]	-0.2%	.	13%	.	.	0
Cc1ccc(C)c(CN2C(=O)C3(OCCCO3)c3ccccc32)c1	-38%	0.7%	0	-12%	2.9	6%	17
Cc1cc(=O)n2c3ccccc3n(CC(O)CN3CCC(C)CC3)c2c1C#N (centres undefined)	7%	35µM*	-10	1%	-1.1	11%	-8
COc1cccc(-c2nc(N3CCN(c4ccccc4)CC3)c3ccccc3n2)c1O	6%	-1.3%	-2	3%	1.8	3%	1
O=C(OCc1nnn(Cc2ccccc2)c1-c1c(COC(=O)c2ccccc2)nnn1Cc1ccccc1)c1ccccc1	.	-6.8%	?	-3%	-0.5	-3%	18
Cc1cccc(-n2cc(CNCCN3CCOC3=O)c(-c3cccc(F)c3)n2)c1	-6%	.	-5	-9%	-8.1	5%	3
CCS(=O)(=O)n1nc(-c2ccccc2)cc1N	26%	-0.4%	-4	4%	2.7	4%	-11
CCCC(=O)Nc1ccc2c(c1)nc(CCN1CCC(C)CC1)n2C	-3%	-1.2%	.	.	.	.	8
CC(=O)Oc1ccc(/C=N/NC(=O)c2ccc(N(C)S(=O)(=O)c3ccccc3)cc2)cc1	2%	.	-5	-25%	0.0	18%	-1
Cc1cccnc1NC(=O)CCCc1c[nH]c2ccccc12	-16%	-1.5%	-24	-1%	.	-1%	-7
NC(=O)CC(NC(=O)c1cccc(Br)c1)c1ccc(NC2CCCCCCCCCCC2)c([N+](=O)[O-])c1 (centres undefined)	.	1.8%	0	7%	6.1	-4%	1
CCOC(=O)N1CCN(C(=O)c2ccc(Cn3c(=S)[nH]c4ccc(Br)cc4c3=O)cc2)CC1	?	.	2	?	.	10%	20
O=C(NCc1ccc2c(c1)OCO2)c1ccc2c(c1)S(=O)(=O)c1ccccc1C2=O	-13%	1.2%	.	2%	.	.	-1
COCCOc1cc2ncnc(N3CCC(C(=O)O)CC3)c2cc1OCCOC	2%[15.4 µM]	-5.4%	-7	11%	-5.4	2%	-14

3 compounds drawn at random from the list so far, as already listed:
SMILES	gsp ag	ClpP mod	TRPV1 PAM	gsp antagonist	Menin-MLL FL inh	Sfp PPTase inh	TRPML1 inh
CCOC(=O)N1CCN(C(=O)c2ccc(Cn3c(=S)[nH]c4ccc(Br)cc4c3=O)cc2)CC1	?	.	2	?	.	10%	20
O=S(=O)(NC1=NCCC1)c1cccc(NC(=S)Nc2ccc(OC(F)F)cc2)c1	4%[15.4 µM]	-0.2%	.	13%	.	.	0
CCOc1cccc(OCCOCCN2CCCC2)c1	-24%	0.5%	4	0%	-1.1	-6%	-15

(next part)
SMILES	gsp ag	ClpP mod	TRPV1 PAM	gsp antagonist	Menin-MLL FL inh	Sfp PPTase inh	TRPML1 inh
C=CCNC(=O)c1cnn(-c2ccccc2)c1-c1ccccc1	18%	.	?	1%	-4.2	7%	5
NCCCC[C@H]1CNC(=S)N1CCCCC1CCCCC1	11%	-1.0%	21	11%	-2.5	3%	33
O=C(O)c1ccc(-c2ccc(/C=C3\NC(=O)N(Cc4ccc(Cl)cc4)C3=O)o2)cc1Cl	1%[15.4 µM]	.	12	4%	?	20µM*	7
CCOC(=O)[C@H]1[C@H]2COc3ccc(Cl)cc3[C@@H]2N2C(=O)c3cc(Br)ccc3NC(=O)[C@@]12C	-29%	-0.4%	?	-11%	.	.	-23
CCCCOc1ccc(C2NC(=O)NC(C)=C2C(C)=O)cc1OCC (centres undefined)	1%	-1.0%	-4	63%[activator]	-1.2	20%	-16
CC(Oc1ccc(Cl)cc1)C(=O)N/N=C/c1ccsc1 (centres undefined)	0%[15.4 µM]	-0.3%	?	-2%	.	-2%	-9
COc1ccc(NC(=O)CN(C)CC(=O)Nc2ccc(C)c(S(=O)(=O)N3CCCCC3)c2)cc1	23%	-0.7%	-9	-23%	.	.	-13
O=C(CSc1cc(Cl)ccc1Cl)Nc1ccc(N2CCOCC2)cc1	10%	-1.6%	1	-17%	.	.	14
CC12CC3(C)CC(C)(C1)CC(NC(=O)N1CCCC1)(C2)C3	7%	0.9%	-16	?	3.0	13%	25
O=C(O)c1ccc(O)c(N2C(=O)Nc3ccccc3N2O)c1	-47%[inhibitor]	-11%	-2	19%	0.5	?	9

The closing two compounds of the section above come first, to join the parts:
SMILES	gsp ag	ClpP mod	TRPV1 PAM	gsp antagonist	Menin-MLL FL inh	Sfp PPTase inh	TRPML1 inh
CC12CC3(C)CC(C)(C1)CC(NC(=O)N1CCCC1)(C2)C3	7%	0.9%	-16	?	3.0	13%	25
O=C(O)c1ccc(O)c(N2C(=O)Nc3ccccc3N2O)c1	-47%[inhibitor]	-11%	-2	19%	0.5	?	9
O=[N+]([O-])c1ccc(C2CC(c3ccccc3)=Nc3ccccc3S2)cc1 (centres undefined)	13%	1.2%	-25	1%	-5.4	10µM*	-6
COC(=O)C1=C(C)N(C)C(=O)NC1c1c(OC)ccc2ccccc12 (centres undefined)	7%[15.4 µM]	.	-3	?	-0.5	14%	-1
Cc1ccc(S(=O)(=O)N2CC3(O)CN(C(=O)OC(C)C)N(C(=O)OC(C)C)CC3(OC(=O)NC3CCCC3)C2)cc1 (centres undefined)	18%	-0.6%	.	.	.	.	-12
O=C(/C=C/c1ccco1)NCC1OCCc2ccccc21 (centres undefined)	14%[15.4 µM]	.	2	-3%	?	22µM*	-9
CC(C)CCOc1ccc(C2=NNC(=O)CC2)cc1	2%[15.4 µM]	.	1	-5%	-2.9	0%	3
N[C@@H](C(=O)N[C@@H]1C(=O)N2C(C(=O)O)=C(Cl)CS[C@H]12)c1ccccc1	.	3.9%	3	-5%	?	50µM*	-3
CC(=O)NC1C(OCc2cccc(Br)c2)OC(COC(C)=O)C(OC(C)=O)C1OC(C)=O (centres undefined)	-3%[15.4 µM]	.	2	.	-1.9	8%	13
Cc1cc(C)c(NS(=O)(=O)c2c(C)noc2C)c(C)c1	-23%	-0.4%	-13	5%	0.7	8%	10
COc1ccc2nc3n(c(=O)c2c1)-c1cc2ccccc2cc1C(=O)NC3Cc1ccc(O)cc1 (centres undefined)	-57%[inhibitor]	-18%	.	.	.	.	-11
COc1ccc(OC)c(NC(=O)CCN2C(=O)c3cccc([N+](=O)[O-])c3C2=O)c1	9%	-0.7%	-9	-30%	1.0	17%	-2
COc1ccc(S(=O)(=O)N2CCOC2CNC(=O)C(=O)NCCN2CCOCC2)cc1OC (centres undefined)	-3%	-1.7%	-13	3%	.	11%	-1
Cc1cc(=O)[nH]c(N/N=C/c2ccc(F)cc2)n1	-22%[15.4 µM]	.	0	-1%	5.6	-15%	14
Cc1ccc(NC(=S)N2CCCC(c3nc4ccccc4[nH]3)C2)cc1 (centres undefined)	-2%	1.3%	4	-6%	-4.3	15%	-8
O=C(NCCN1CCCCC1)c1cc(OCC(F)(F)F)ccc1OCC(F)(F)F	-31%[inhibitor]	?	?	11%	4.3	0%	8
COc1ccc(C2C3=C(CC(C)(C)CC3=O)N(C)C3=C2C(=O)CC(C)(C)C3)cc1	?	.	-10	3%	-4.6	23%	-8
CC1Sc2ccc(S(=O)(=O)N3CCN(c4ccccc4)CC3)cc2NC1=O (centres undefined)	-23%	0.5%	8	-4%	.	3%	19
COc1cccc(N2CCN(C(=O)C3CCCN(S(=O)(=O)c4ccc5c(c4)oc(=O)n5C)C3)CC2)c1 (centres undefined)	42%	-0.1%&0.1%	4	-33%	3.6	-2%	25&-7
COC(=O)c1ccccc1S(=O)(=O)N1CCC(C(=O)N2CCC2)CC1	-6%	0.7%	14	2%	.	.	12
O=C(c1cccs1)N(C(=O)c1cccs1)c1ccccn1	-40%[inhibitor]	1.1%	-6	13%	2.8	7%	-14
COc1ccc(-c2c(-c3ccccc3OC)oc3ccccc23)cn1	.	4.3%	3	-23%	.	.	-1
